Assay outcomes from PubChem BioAssay.
MgrA DNA FP – S. aureus MgrA-DNA binding modulation | fluorescence polarization | AID 602314 | 84,000 tested, 0.13% active | inhibition, %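 (about 10 µg/mL by stock and volumes)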;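 active means above 50% in either of two replicates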;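 further: 0% = protein plus DNA without compound and 100% = DNA alone without protein; higher means less MgrA bound to DNA so lower polarization; one replicate is shown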
S aureus helic – blocks Staphylococcus aureus DNA helicase. purified S. aureus helicase, fluorescence unwinding assay; about half of the hits fall short of the stated cut. inhibition, %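 (tested at about 80 µM)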. 120,000 tested, 0.05% active. AID 485395;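 active means both duplicates at 50% or more, or one of them with a favoured structure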;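 further: 0% = mean of negative control wells and 100% = mean of positive control wells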
* marks the source's active call; other numbers are inactive results; · = no result given; & = joins results of further samples.

SMILES	MgrA DNA FP	S aureus helic
Cc1ccc(-c2nn(C)c(=O)c3ccccc23)cc1CNC(=O)CN1CCOCC1	5.8	1.0
CN(C)S(=O)(=O)c1ccc(S(=O)(=O)N(C)CC2COc3ccccc3O2)cc1 (stereo unspecified)	-0.8	-5.0
COc1ccc(CCNC(=O)c2ccc3c(=O)n(CCC4=CCCCC4)c(=S)[nH]c3c2)cc1OC	-0.3	4.0
CC(SCc1nc2ccccc2[nH]1)c1ccccc1 (stereo unspecified)	-1.4	9.0
CC(=O)n1c2ccccc2c2c(-c3ccc(C)cc3)c(N3CCOCC3)sc21	·	-25.0
CC1=CC(C)(C)N(C(=O)CNC2CCCCC2)c2cc(C)ccc21	-5.0	16.0
COc1ccc(-n2c(C)cc(/C=C3/C(=N)N4C(=NC3=O)SN=C4S(C)(=O)=O)c2C)cc1Cl	·	10.0
c1ccc2c(c1)[nH]c1c(N3CCOCC3)ncnc12	0.3	8.0
COC(=O)c1c(C)oc(C)c1S(=O)(=O)NCC1CC1	0.4	·
Cc1ccccc1OCCn1c(SCc2nc3ccccc3[nH]2)nc2ccccc21	1.1	-3.0
O=C(O)Cn1cc(C=C2C(=O)NC(=S)NC2=O)c2ccccc21	16.6	5.0
NS(=O)(=O)Cc1ccccc1	·	-7.0
Cc1c(O)ccc2c(=O)c(Oc3ccccc3)coc12	·	9.0
O=C(NCCc1c[nH]c2ccccc12)c1cc(Cl)cc(Cl)c1	2.0	26.0
O=C1/C(=C\c2cccnc2)CN(Cc2ccccc2)C/C1=C\c1cccnc1	·	27.0
COc1ccc(CO[C@@H]2O[C@H](CO)[C@@H](O)[C@H](O)[C@H]2NC(C)=O)cc1OC	·	18.0
Cn1nnnc1SCC(=O)NCCc1ccc(Cl)cc1	·	16.0
CC(=O)OC1(c2ccccc2)CC(C)CN(C)C1 (stereo unspecified)	-3.6	16.0
CCC(=O)c1cc(N)ccc1O	6.6	1.0
CN(C)c1nc2c(c(=O)n(C)c(=O)n2C)n1C	·	2.0
CC(=O)Nc1cccc(-c2cn3c(C)cccc3n2)c1	·	22.0
CN(C)c1ncnc2sc3c(c12)CCCC3	·	2.0
CN(C)c1ccc(-c2nc3ccccn3c2NC2CCCC2)cc1	1.5	3.0
O=c1ccc2cc3c4c(oc3cc2o1)CCCC4	·	-24.0
O=c1c2ccccc2nc2ccccn12	·	24.0
O=C(Cn1ncc2ccccc21)NCc1cccnc1	0.9	-9.0
NNC(=O)CCCOc1ccc(Cl)cc1Cl	·	-13.0
CNC1=C(n2nnc3ccccc32)C(=O)c2ccccc2C1=O	·	-14.0
COC(=O)C(Cc1c[nH]c2ccccc12)NS(=O)(=O)c1cc(Cl)cc(Cl)c1 (stereo unspecified)	1.5	·
Cn1c(CC(O)c2cccc3ccccc23)nc2ccccc21 (stereo unspecified)	-0.8	8.0

Three of the entries above in order of their number in MgrA DNA FP, smallest number first.
smiles	MgrA DNA FP	S aureus helic
Cn1c(CC(O)c2cccc3ccccc23)nc2ccccc21 (stereo unspecified)	-0.8	8.0
O=C(Cn1ncc2ccccc21)NCc1cccnc1	0.9	-9.0
COC(=O)C(Cc1c[nH]c2ccccc12)NS(=O)(=O)c1cc(Cl)cc(Cl)c1 (stereo unspecified)	1.5	·

Other structures
SMILES	MgrA DNA FP	S aureus helic
Cc1cc(C)c2c3c(oc2n1)C(=O)N(c1ccccc1)CC(=O)N3	1.9	·
O=C(NCc1cccs1)c1ccc(Cl)cc1	·	15.0
CN=c1scc(-c2ccc(C)c(C)c2)n1/N=C/c1ccc[nH]1	·	-21.0
COc1ccc(C(=O)CSc2nc(C)cc(C)c2C#N)cc1	·	8.0
CCOc1ccc(-n2c(SCC(=O)NC3CCCC3)nnc2-c2ccoc2C)cc1	2.3	-8.0
COc1ccccc1-c1ncnn1C1=C(C#N)C2CCCCCC2S1 (stereo unspecified)	-1.0	0.0
CCN(CC)c1ccc(C=C2C(=O)c3ccccc3C2=O)c(O)c1	21.8	-95.0
O=C1CC(c2ccccc2)CC(O)=C1C=NCc1ccco1 (stereo unspecified)	-0.4	-13.0
CC(NC(=O)c1ccc2c(c1)OCO2)C(c1cccs1)N1CCOCC1 (stereo unspecified)	·	10.0
CS(=O)(=O)Nc1ccccc1Cc1ccccc1	2.0	9.0
COCCN(Cc1ccco1)C(=O)Cn1nc(Cc2cccnc2)c2ccccc2c1=O	·	10.0
CCCOc1ccccc1C1NC(=O)NC(C)=C1C(=O)OCCCBr (stereo unspecified)	-0.6	·
O=C1C=CC(=O)N1c1ccccc1OC(F)(F)F	-7.9	·
CCN(CC)c1nc2ccccc2n(CC(=O)Nc2ccc(F)cc2F)c1=O	·	-1.0
COc1cccc(-c2nc(-c3cc4ccccc4[nH]c3=O)no2)c1	·	6.0
NNC(=O)c1sc2ccccc2c1Cl	-1.9	·
Cn1c(CNC(=O)c2cccs2)nnc1SCc1ccccc1	4.4	·
COCc1cc(C)nc(SCC(=O)N2CCOCC2)c1C#N	0.4	8.0
CS(=O)(=O)c1ccc(C(=O)N2CCc3ccccc3C2)cc1	·	-11.0
CC1S/C(=C(/C#N)C(N)=O)N(c2ccccc2)C1=O (stereo unspecified)	·	-19.0

Gathered by group, the entries above containing a cyano group.
SMILES	MgrA DNA FP	S aureus helic
COc1ccc(C(=O)CSc2nc(C)cc(C)c2C#N)cc1	·	8.0
COc1ccccc1-c1ncnn1C1=C(C#N)C2CCCCCC2S1 (stereo unspecified)	-1.0	0.0
COCc1cc(C)nc(SCC(=O)N2CCOCC2)c1C#N	0.4	8.0
CC1S/C(=C(/C#N)C(N)=O)N(c2ccccc2)C1=O (stereo unspecified)	·	-19.0

The results go on.
SMILES	MgrA DNA FP	S aureus helic
N#Cc1ccc(C(=O)N2CCN(c3cccc(C(F)(F)F)c3)CC2)cc1	·	-3.0
CCOc1ncccc1C(=O)Nc1ccc(S(=O)(=O)N2CCOCC2)cc1	·	-3.0
COC(=O)c1cc([N+](=O)[O-])ccc1N1CCOCC1	0.3	·
CCOC(=O)C1CCCN(Cc2nc(N)nc(Nc3ccccc3)n2)C1 (stereo unspecified)	·	-27.0
CCOC(=O)C1=C(CN2CC(C)CC(C)C2)NC(=O)NC1c1ccc(C)cc1 (stereo unspecified)	0.2	7.0
COc1ccc(-c2n[nH]c(=S)n2-c2cccc(C(F)(F)F)c2)cc1	-0.9	·
CNC(=S)Nc1ccc(C)cc1	-0.7	3.0
COc1cccc(CNC(=O)c2[nH]nc3c2COc2ccccc2-3)c1	·	-11.0
O=c1c2sc3nc(N4CCOCC4)c4c(c3c2ncn1-c1ccccn1)CCCC4	4.2	10.0
Nc1c(N2CCCCC2)c2ccccc2oc1=O	·	-4.0
Cc1nnc(N(C)C)c2c1nnn2Cc1ccccc1Cl	·	-21.0
COc1ccc(/C=C2\SC(=S)N(CC(=O)NCCO)C2=O)cc1	-1.0	4.0
Cc1ccccc1CSc1cnc2ccccc2n1	0.0	·
O=C(O)c1ccc2c(c1)C(=O)N(c1nc3nc4c(c(=O)n3[nH]1)CCC4)C2=O	·	9.0
CCOC(=O)c1cc2c(ccn2C)n1CC(=O)N1C(C)CCCC1C (stereo unspecified)	-3.4	5.0
O=[N+]([O-])c1ccc(OCCO)nc1	1.5	·
CN(C)C1CS(=O)(=O)CC1N(C)C (stereo unspecified)	-0.8	-16.0
O=C(Cn1cc(C(F)(F)F)ccc1=O)N/N=C/c1ccccn1	·	11.0
Cc1cccn2c(=O)c(C(=O)NC3CCCCC3C)c(O)nc12 (stereo unspecified)	·	2.0
Cc1ccccc1C(CC(=O)O)N1Cc2ccccc2C1=O (stereo unspecified)	-3.9	·
N#CCCCSc1ncnc2scc(-c3ccccc3)c12	·	-19.0
Cc1ccc(C2Nc3ccccc3C(=O)N2CCN2CCNC2=O)cc1 (stereo unspecified)	·	16.0
CCn1c(SCC(N)=O)nnc1C1CCCC1	1.9	-5.0
COC(=O)c1cccc(NC(=O)/C=C/c2ccco2)c1C	8.8	8.0
Cc1onc(-c2ccccc2)c1C(=O)OCC(=O)c1ccc2[nH]c(=O)[nH]c2c1	·	13.0
CC(C)CCNC(=O)C1CCCN(c2nc3ccccc3o2)C1 (stereo unspecified)	·	6.0
CCOc1ccccc1NC(=O)C(C)Sc1ccccc1 (stereo unspecified)	0.9	7.0
O=c1oc2ccccc2c(O)c1Cc1cc(Cl)c2cccnc2c1O	·	-15.0
CCn1c(-c2ccc(C)cc2)cnc1SCC(=O)N1CCN(C(C)=O)CC1	·	1.0
N#CC1=C(N)N=C(SCC(=O)Nc2ccccc2)C(C(N)=O)C12CCCCC2 (stereo unspecified)	1.3	-2.0
CN(C)c1ccc(N=Cc2ccccc2)cc1	·	2.0
CC(C)(C)c1cc(CCC(=O)NCCN)cc(C(C)(C)C)c1O	1.5	-4.0
CCOCC(=O)Nc1c(C(=O)Nc2cccc(OC)c2)oc2ccccc12	-1.2	2.0
O=C(O)CC1NC(=O)N(C2CCCCC2)C1=O (stereo unspecified)	-1.8	-6.0
CCCSc1nnc2c(n1)OC(c1c(C)[nH]n(-c3ccccc3)c1=O)Nc1ccccc1-2 (stereo unspecified)	4.3	·
CCn1c(=O)c2c(nc3n2CCCN3c2ccccc2)n(C)c1=O	·	-11.0
CCN1C(=O)C(=C2SC3CS(=O)(=O)CC3S2)SC1=S (stereo unspecified)	·	1.0
COc1ccc(N2C(=O)CC(Sc3nc4ccccc4c(=O)n3CCO)C2=O)cc1 (stereo unspecified)	·	4.0
Cc1ccccc1C1C(C#N)=C(SCC(=O)Nc2ccc(Br)cc2)NC(=O)C1C#N (stereo unspecified)	1.9	·
N#Cc1nncn1-c1ncnc2scc(-c3ccc(Cl)cc3)c12	·	5.0

Complete entries from above. Values in the order: MgrA DNA FP | S aureus helic
Cc1ccccc1C1C(C#N)=C(SCC(=O)Nc2ccc(Br)cc2)NC(=O)C1C#N (stereo unspecified) in the list: 1.9 | ·
CCn1c(=O)c2c(nc3n2CCCN3c2ccccc2)n(C)c1=O in the list: · | -11.0

The list goes on.
SMILES	MgrA DNA FP	S aureus helic
CN(C(=O)Cn1nc(Cc2ccncc2)c2ccccc2c1=O)c1ccccc1	0.1	8.0
Ic1ccc2c(c1)CCO2	-1.2	·
O=C1CCC(C(=O)Nc2nc(SCc3ccc(Cl)cc3)n[nH]2)=NN1	·	5.0
CC(=O)NCc1ccc(C(=O)CSc2nnc3sc4ccccc4n23)o1	·	17.0
Cn1ncc2c(NCCO)ncnc21	1.2	·
Cc1ccccc1-c1nnc(-c2ccccc2)o1	·	10.0
O=C(NC1(O)C(=O)c2ccccc2C1=O)c1ccccn1	·	-14.0
COc1ccc2c(c1)CCC/C2=N\N	-1.7	2.0
CSc1nc2c(c(=O)n1-c1ccc(F)cc1)SCC2	·	9.0
Cc1ccccc1N1OC2C(=O)N(c3sc4c(c3C#N)CCCC4)C(=O)C2C1c1cccs1 (stereo unspecified)	·	-6.0

3 entries out of the list, arranged by length of the SMILES, largest number first:
SMILES	MgrA DNA FP	S aureus helic
CC(=O)NCc1ccc(C(=O)CSc2nnc3sc4ccccc4n23)o1	·	17.0
CSc1nc2c(c(=O)n1-c1ccc(F)cc1)SCC2	·	9.0
Cc1ccccc1-c1nnc(-c2ccccc2)o1	·	10.0

Following part.
SMILES	MgrA DNA FP	S aureus helic
Oc1oc(-c2ccccc2)nc1/C=C1\C=Nc2ccccc21	-0.4	-13.0
CCC(=O)NCCc1nc2cc(NC(=O)Nc3ccccc3)ccc2n1C	·	18.0
COc1ccc(CC2C(=O)OC(C)(C)OC2=O)c(Cl)c1OC	-0.5	·
COc1cccc2cc(C(=O)Nc3sc(C)c(-c4ccccc4)c3C(N)=O)c(=O)oc12	·	-11.0
CC1(C)C2CCC1(CS(=O)(=O)NCCCN1CCCC1=O)C(=O)C2 (stereo unspecified)	·	10.0
O=C(COC(=O)[C@@H]1CCCN1S(=O)(=O)c1ccccc1F)c1ccccc1	·	12.0
O=C(Nc1nccs1)c1oc2ccccc2c1CSc1ncn[nH]1	·	-1.0
C=CC[N+](C)(C)CCN1C(=O)C2C(c3ccccc3)C=CC(c3ccccc3)C2C1=O (stereo unspecified)	0.8	-12.0
Cn1c(=O)c2c(nc3n(CC(O)c4ccccc4)c(-c4ccccc4)cn23)n(C)c1=O (stereo unspecified)	·	11.0
Nc1ccc(C(=O)NCC(=O)O)cc1	0.2&2.8	·
O=C1ON(c2ccccc2)C(c2ccccc2)N1c1ccc(Cl)cc1 (stereo unspecified)	·	21.0
CCN1CCc2c(sc3[nH]c(=S)[nH]c(=S)c23)C1	10.8	-11.0
O=C1CC(C(=O)OCc2ccccc2)N1 (stereo unspecified)	-0.5	·
Cc1ccc(C)c(N2CCN(C(=O)CNS(=O)(=O)c3cccs3)CC2)c1	·	6.0
OCc1sc2ccccc2c1Cl	·	-5.0
COc1ccc(-c2nn(-c3ccccc3)cc2C(=O)N(C)C)cc1OC	·	2.0
O=C(NC1CC1)c1sc2ccccc2c1Cl	-1.2	3.0
CSC(=NCc1cccs1)NC(=O)c1c(Cl)cccc1Cl	0.1	·
NS(=O)(=O)c1ccc(C(=O)OCc2ccccc2)cc1	-0.2	7.0
O=C(O)c1ccc(NN=C2CCCCCC2)cc1	·	18.0
CCOC(=O)c1c(-c2cccs2)csc1NC(=O)CN1CC(C)OC(C)C1 (stereo unspecified)	·	-3.0
COc1cccc(-c2nnc(SCC(=O)N3CCCC(C)C3)o2)c1 (stereo unspecified)	0.3	11.0
CCN(CC)S(=O)(=O)c1ccc2nc(CSc3n[nH]c(N)n3)[nH]c2c1	·	7.0
CNC(=O)c1ccccc1S(=O)c1cccc2cccc(CO)c12 (stereo unspecified)	0.2	·
O=C(O)CSCCS(=O)(=O)c1ccccc1	-1.0	·
CC(C)CSc1n[nH]c(N)n1	-0.8	2.0
Cn1cccc1/C=C1\CC(C(C)(C)C)C/C(=C\c2cccn2C)C1=O (stereo unspecified)	·	-98.0
COc1ccc(/C=C2\Oc3ccccc3N(CC(=O)N3CCC(C(N)=O)CC3)C2=O)cc1Br	·	19.0
C=CCn1c(Cc2ccc(O)c(Cl)c2)n[nH]c1=S	·	-25.0
O=C1N(Cc2ccccc2F)c2ccccc2C12OCCS2 (stereo unspecified)	·	-17.0
N#Cc1cccc(NC(=O)NCC2CCCC(CNC(=O)Nc3cccc(C#N)c3)C2)c1 (stereo unspecified)	·	9.0

Some of the compounds tested (hit frequency here may not be typical).
